Bioassay records: PubChem BioAssay, Broad Institute
MLL AF4-AF9 inh: MLL-AF4/AF9 protein interaction inhibition. AlphaScreen, biotin-AF4 peptide binding to FLAG-AF9. inhibition, % at 10 µM. hit rate 0.47% among 350,000. AID 651704;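 active = every replicate reaching a set inhibition limit, whatever the replicate mean, cut at about 25% in these data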;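 note: 0% = plate neutral control median and 100% = total signal loss; the record names both 10 and 1 µM as test concentration; the first replicate is given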
Target sequence (P42568 whole entry, looked up): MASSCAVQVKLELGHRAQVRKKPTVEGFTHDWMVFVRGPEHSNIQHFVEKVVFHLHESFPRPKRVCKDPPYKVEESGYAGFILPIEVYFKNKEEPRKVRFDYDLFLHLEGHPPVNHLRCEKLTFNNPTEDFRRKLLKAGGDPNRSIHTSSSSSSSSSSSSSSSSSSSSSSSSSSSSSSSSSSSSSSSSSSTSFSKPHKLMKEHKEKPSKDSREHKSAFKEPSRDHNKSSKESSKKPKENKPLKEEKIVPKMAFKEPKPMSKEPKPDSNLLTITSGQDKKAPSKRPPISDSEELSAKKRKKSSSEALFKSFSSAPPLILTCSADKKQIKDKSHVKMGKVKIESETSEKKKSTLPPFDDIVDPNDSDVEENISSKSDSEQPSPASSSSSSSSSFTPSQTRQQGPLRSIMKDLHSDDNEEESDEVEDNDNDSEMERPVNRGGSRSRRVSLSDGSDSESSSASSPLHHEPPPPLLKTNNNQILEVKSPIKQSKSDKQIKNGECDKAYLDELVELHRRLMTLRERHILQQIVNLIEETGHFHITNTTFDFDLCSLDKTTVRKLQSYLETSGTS
* hit, by the source's call. Not all compounds are listed; count on the stated rates, not on these rows.

canonical_smiles	MLL AF4-AF9 inh
C[C@@H]1CN([C@@H](C)CO)C(=O)c2cccc(NC(=O)c3ccncc3)c2O[C@H]1CN(C)CC1CCCCC1	-0.6
CC(C)Nc1nc(NCCO)nc2ccccc12	-2.2
C[C@@H]1CN([C@@H](C)CO)C(=O)c2ccccc2-c2ccccc2CO[C@H]1CN(C)C(=O)Nc1ccnc(N2CCOCC2)c1	8.3
Cc1ccc(S(=O)(=O)N[C@@H]2CC[C@H](CCNC(=O)C3CCCC3)O[C@@H]2CO)cc1	-0.6
COc1ccc2c3c([nH]c2c1)[C@H](CO)N(Cc1ccccc1F)CC31CCN(CC2CC2)CC1	14.1
C[C@@H]1CCCCO[C@@H](CN(C)C(=O)c2ccncc2)[C@@H](C)CN([C@@H](C)CO)C(=O)c2cc(NC(=O)C3CCCCC3)ccc2O1	-0.3
CCC(=O)Nc1ccc2c(c1)C(=O)N(C)C[C@@H](OC)[C@H](C)CN(C(=O)c1ccccc1F)[C@@H](C)CO2	-2.8
O=C(C[C@@H]1C[C@H]2c3cc(NC(=O)NC4CCCC4)ccc3O[C@H]2[C@@H](CO)O1)NC1CCCC1	-1.4
CNC[C@H]1Oc2ccc(NC(=O)Cc3cn(C)c4ccccc34)cc2CC(=O)N([C@@H](C)CO)C[C@@H]1C	-0.6
O=C(Cc1ccncc1)NCC[C@@H]1CC[C@@H](NC(=O)C2CCC2)[C@@H](CO)O1	-1.8
CC1C=NC(S(=O)(=O)N2CC[C@@H]3[C@H](CO)N(C)c4ccc(-c5ccccc5F)cc4[C@@H]32)=N1 (stereo not given in full)	1.4
CO[C@H]1CN(C)C(=O)c2ccc(NC(=O)C3CC3)cc2OC[C@H](C)N(C(=O)CN(C)C)C[C@H]1C	0.6
N#C[C@@H]1[C@H](c2ccccc2-c2ccccc2)[C@@H](CO)N1C(=O)Cc1cccnc1	0.0
CCC(=O)N1CC(=O)N2[C@H](CO)[C@H](c3ccc(-c4ccc(C#N)cc4)cc3)[C@@H]2C1	-2.5
CO[C@@H]1CN(C)C(=O)c2ccc(NC(=O)C3CC3)cc2OC[C@@H](C)N(C(=O)c2ccncc2)C[C@@H]1C	-0.3
C[C@@H]1CN([C@@H](C)CO)C(=O)c2cc(NC(=O)CCC(F)(F)F)ccc2O[C@@H](C)CCCCO[C@@H]1CN(C)Cc1ccc(C(=O)O)cc1	-0.8
CC(=O)N1[C@@H](CO)[C@@H](c2ccccc2)C12CN(C(=O)CN1CCOCC1)C2	-0.9
CC1(Oc2ccccc2-c2ccn[nH]2)CCN(Cc2ccc(OC(F)(F)F)cc2)C1 (stereo not given)	0.1
COCCNC(=O)C[C@H]1CC[C@@H]2[C@@H](COc3ccc(NC(=O)Cc4ccccc4)cc3C(=O)N2C)O1	-2.7
C[C@@H]1CN([C@H](C)CO)C(=O)c2cc(NS(=O)(=O)c3ccc(F)cc3)ccc2O[C@@H]1CN(C)S(=O)(=O)c1cn(C)cn1	-0.2
c1ccc(Oc2ccccc2-c2cc(NCCc3cccnc3)n3nccc3n2)cc1	-1.0
COc1ccccc1NC(=O)N1CC(=O)N2[C@H](CO)[C@@H](c3ccc(C#Cc4ccc(F)cc4)cc3)[C@H]2C1	2.6
CC(=O)Nc1ccc(C=CC=Cc2cccc([N+](=O)[O-])c2)cc1	-2.7
COc1ccc(NC(=O)N[C@H]2CC[C@@H](CCn3cc(C4(O)CCCC4)nn3)O[C@@H]2CO)cc1	-0.7
OC(c1ccccc1)(c1nc(-c2cccc(F)c2)cs1)C(F)(F)F (stereo not given)	-9.0
CN(C)C(=O)c1ccc(-c2ccc([C@@H]3[C@H]4CN(C(=O)C5CCC5)CC(=O)N4[C@H]3CO)cc2)cc1	-1.4
CCCNC(=O)N1CC2(CN(C(=O)C3CCCCC3)C2)c2c([nH]c3cc(OC)ccc23)[C@@H]1CO	1.0
CCCNC(=O)Nc1ccc2c(c1)C(=O)N(C)C[C@H](OC)[C@@H](C)CN(C)[C@H](C)CO2	-1.4
COCc1ccc(C(=O)N2CCCC(N3CCN(c4cccc(Cl)c4)CC3)C2)s1 (stereo not given)	0.3
COCC(=O)Nc1ccc2c(c1)C(=O)N(C)[C@@H]1CC[C@@H](CC(=O)NCc3ccccc3F)O[C@H]1CO2	-8.2
CN1C(=O)c2cc(NC(=O)c3ccc(F)c(F)c3)ccc2OC[C@@H]2O[C@H](CC(=O)N3CCCCC3)CC[C@@H]21	0.3
COc1ccc(COC[C@]23NC(=O)N[C@H](c4ccccc4O2)[C@H]3CO)cc1	25.6*
C[C@H](NC(=O)[C@@H]1[C@@H](CO)[C@@H]2Cn3c(ccc(-c4ccccc4)c3=O)[C@H]1N2C)c1ccccc1	-0.6
COc1ccc(CN(C)C[C@H]2OCCCC[C@@H](C)Oc3ccc(NC(=O)NC(C)C)cc3C(=O)N([C@H](C)CO)C[C@@H]2C)cc1	-2.5
CO[C@@H]1CN(C)C(=O)c2ccc(NC(=O)C3CCC3)cc2OC[C@@H](C)N(Cc2cccnc2)C[C@H]1C	1.5
CCOc1cc2c(cc1O)C(=NOC)CC1C2CCC2(C)C(O)CCC12 (stereo not given)	-0.3
CC(C)C#Cc1cnc2c(c1)C(=O)N([C@@H](C)CO)C[C@@H](C)[C@H](CN(C)C(=O)CCN1CCCCC1)O2	0.2
CC(C)NC(=O)Nc1cccc2c1O[C@H](CN(C)Cc1ccc(Cl)c(Cl)c1)[C@@H](C)CN([C@H](C)CO)C2=O	2.1
C[C@@H]1CN([C@@H](C)CO)C(=O)c2cc(C#Cc3ccccn3)cnc2O[C@H]1CN(C)Cc1cccnc1	-4.9
C[C@@H]1CCCCO[C@@H](CN(C)Cc2ccc(C(=O)O)cc2)[C@@H](C)CN([C@@H](C)CO)C(=O)c2cc(NS(=O)(=O)c3ccc(Cl)cc3)ccc2O1	1.3
COc1ccc(CN(C)C[C@@H]2Oc3ccc(NS(=O)(=O)c4ccc(OC)cc4)cc3CC(=O)N([C@@H](C)CO)C[C@@H]2C)cc1	4.3
C[C@H]1CN([C@@H](C)CO)C(=O)c2cc(NS(=O)(=O)c3ccc(F)cc3)ccc2O[C@H]1CN(C)C(=O)Nc1ccc(F)cc1	-4.2
C[C@H](O)C#Cc1ccc([C@@H]2[C@H]3CN(S(=O)(=O)c4ccccc4)CCCCN3[C@H]2CO)cc1	-2.9
C[C@H]1CN([C@@H](C)CO)C(=O)c2cc(NC(=O)Nc3cccc4ccccc34)ccc2O[C@@H]1CN(C)Cc1ccccc1	10.9
CCCCN(C=O)c1c(CC)nc2c(OCc3ccc(Cl)cc3)cccn12	0.8
Cc1ccc(Nc2nc(N)nc(N)c2N=O)cc1Cl	-1.1
COC(=O)C[C@@H]1C=C[C@@H](NC(=O)CN(C)C)[C@@H](CO)O1	0.2
COc1ccc2c3c([nH]c2c1)[C@@H](CO)N(C(=O)NC(C)C)CC31CCN(C(=O)c2ccncc2)CC1	-0.4

Some of these compounds in order of number of heavy atoms, highest first.
canonical_smiles	MLL AF4-AF9 inh
C[C@@H]1CN([C@@H](C)CO)C(=O)c2cc(C#Cc3ccccn3)cnc2O[C@H]1CN(C)Cc1cccnc1	-4.9
CO[C@H]1CN(C)C(=O)c2ccc(NC(=O)C3CC3)cc2OC[C@H](C)N(C(=O)CN(C)C)C[C@H]1C	0.6
COc1ccc(NC(=O)N[C@H]2CC[C@@H](CCn3cc(C4(O)CCCC4)nn3)O[C@@H]2CO)cc1	-0.7

Next part
canonical_smiles	MLL AF4-AF9 inh
O=C(Nc1ccc(Cl)c(Cl)c1)N[C@@H]1CC[C@@H](CCn2cc(C3CCCC3)nn2)O[C@@H]1CO	-0.2
C[C@@H]1CN([C@@H](C)CO)C(=O)c2cc(NC(=O)Cc3cn(C)c4ccccc34)ccc2O[C@H]1CN(C)CC1CCCCC1	11.7
COc1cccc(NC(=O)N(C)C[C@@H]2Oc3cc(-c4ccccc4F)ccc3S(=O)(=O)N([C@H](C)CO)C[C@@H]2C)c1	1.1
C[C@H]1CN([C@@H](C)CO)C(=O)c2cccc(NC(=O)Nc3ccc4c(c3)OCO4)c2O[C@H]1CN(C)C(=O)NC1CCCCC1	11.5
O=S(=O)(c1ccccc1)N1CC[C@@H]2[C@@H](CO)Nc3ccc(Br)cc3[C@@H]21	-0.6
C[C@H]1CN([C@@H](C)CO)S(=O)(=O)c2ccc(C#Cc3ccncc3)cc2O[C@@H]1CN(C)S(=O)(=O)c1ccccc1	5.2
O=C(CN1CCOCC1)NCC[C@H]1CC[C@@H](NC(=O)c2ccc3c(c2)OCO3)[C@H](CO)O1	2.5
C[C@@H]1CN([C@H](C)CO)S(=O)(=O)c2ccc(C#Cc3ccccc3)cc2O[C@@H]1CN(C)S(=O)(=O)c1ccccc1F	-1.0
CCCNC(=O)N1[C@H](CO)[C@H]2c3ccccc3N(C)C[C@H]21	-1.3
CNC[C@H]1Oc2ncc(C#Cc3ccccc3F)cc2C(=O)N([C@@H](C)CO)C[C@H]1C	5.8
COc1ccc(NC(=O)N(C)C[C@@H]2OCCCC[C@H](C)Oc3ccc(NC(=O)CCC(F)(F)F)cc3C(=O)N([C@H](C)CO)C[C@H]2C)cc1	1.5
CC(=O)C[C@H](O)CC(=O)[C@H]1OC(=O)[C@@H](C)C/C=C\Cc2ccccc21	1.6

Looked up one by one from above:
canonical_smiles	MLL AF4-AF9 inh
C[C@@H]1CN([C@H](C)CO)S(=O)(=O)c2ccc(C#Cc3ccccc3)cc2O[C@@H]1CN(C)S(=O)(=O)c1ccccc1F	-1.0
CNC[C@H]1Oc2ncc(C#Cc3ccccc3F)cc2C(=O)N([C@@H](C)CO)C[C@H]1C	5.8
O=S(=O)(c1ccccc1)N1CC[C@@H]2[C@@H](CO)Nc3ccc(Br)cc3[C@@H]21	-0.6
CCCNC(=O)N1[C@H](CO)[C@H]2c3ccccc3N(C)C[C@H]21	-1.3
COc1ccc(NC(=O)N(C)C[C@@H]2OCCCC[C@H](C)Oc3ccc(NC(=O)CCC(F)(F)F)cc3C(=O)N([C@H](C)CO)C[C@H]2C)cc1	1.5

(next part)
canonical_smiles	MLL AF4-AF9 inh
C[C@H](CO)N1C[C@H](C)[C@@H](CN(C)Cc2ccc(C(F)(F)F)cc2)Oc2ccc(NS(C)(=O)=O)cc2C1=O	-4.3
CC(=O)Nc1ccc(NC(=O)c2csc([C@@H]3C[C@H](O)[C@@H](CO)O3)n2)cc1	-4.8
CO[C@@H](CN(C)S(=O)(=O)c1cccc(Cl)c1)[C@@H](C)CN(C(=O)Nc1ccccc1F)[C@@H](C)CO	1.1
C[C@@H]1CCCCO[C@@H](CN(C)S(=O)(=O)c2cn(C)cn2)[C@H](C)CN([C@@H](C)CO)C(=O)c2cc(NS(=O)(=O)c3ccc(F)cc3)ccc2O1	-0.7
C[C@@H]1CN([C@@H](C)CO)C(=O)c2c(c3ccccc3n2C)-c2ccccc2CO[C@H]1CN(C)C(=O)Cc1ccccc1	2.4
C=C1C(O)C[C@@H](C(C)C)N(CC(C)C)S1(=O)=O (stereo not given in full)	-1.2
CCCNC(=O)Nc1ccc2c(c1)C(=O)N(C)C[C@H](OC)[C@@H](C)CN(C(=O)c1ccccc1F)[C@H](C)CO2	-0.8
C[C@@H]1CN([C@H](C)CO)C(=O)c2cc(C3=CCCCC3)cnc2O[C@@H]1CN(C)C(=O)Nc1ccc(F)cc1	0.3
Cc1noc(C)c1NC(=O)Nc1ccc2c(c1)C(=O)N([C@@H](C)CO)C[C@@H](C)[C@H](CN(C)Cc1ccc(C(=O)O)cc1)O2	-1.3
CCC(=O)N1CC2(C1)[C@H](c1ccccc1)[C@@H](CO)N2C(=O)c1ccccc1	-3.0
CC[C@]12c3[nH]c4ccc(OC)cc4c3CCN1C(=O)C(CC(=O)NCCN1CCOCC1)C[C@@H]2C(=O)N1CCN(C(=O)c2ccco2)CC1 (stereo not given in full)	2.7
CCCCn1c(N)c(N(CCC(C)C)C(=O)CSc2nncn2-c2ccccc2)c(=O)[nH]c1=O	-1.5
COc1cccc(S(=O)(=O)N2CCCCN3[C@H](CO)[C@@H](c4ccc(-c5cncnc5)cc4)[C@@H]3C2)c1	-4.3
O=C(C[C@@H]1CC[C@H]2[C@@H](COC[C@H](O)CN2C(=O)Nc2ccc(F)cc2)O1)NC1Cc2ccccc2C1	-1.5
O=C(NCc1ccccc1)[C@@H]1CCCN1C(=O)[C@@H]1CCCN1C(=O)c1cccc2ccccc12	-6.5
C[C@@H]1CCCCO[C@@H](CN(C)S(=O)(=O)c2ccccc2)[C@H](C)CN([C@@H](C)CO)C(=O)c2cc(NC(=O)CCC(F)(F)F)ccc2O1	-9.1
C[C@H]1CN([C@@H](C)CO)S(=O)(=O)c2ccc(C3=CCCC3)cc2O[C@H]1CN(C)C(=O)C1CCCCC1	4.2
Cc1ccc(S(=O)(=O)N(C)C[C@@H]2OCCCC[C@H](C)Oc3ccc(NC(=O)Nc4cccc5ccccc45)cc3C(=O)N([C@H](C)CO)C[C@@H]2C)cc1	1.7
O=S(=O)(c1ccccc1)N1CCCCN2[C@H](CO)[C@H](c3ccc(C#Cc4ccccn4)cc3)[C@H]2C1	11.5
CCCNC(=O)N1CC2(CN(Cc3ccc(F)cc3)C2)c2c([nH]c3cc(OC)ccc23)[C@@H]1CO	14.8
CN1C(=O)c2cc(NC(=O)Cc3cccs3)ccc2OC[C@@H]2O[C@@H](CC(=O)O)CC[C@H]21	0.7
Cc1noc(C)c1NC(=O)Nc1ccc2c(c1)C(=O)N([C@@H](C)CO)C[C@H](C)[C@@H](CN(C)Cc1ccc(Oc3ccccc3)cc1)O2	3.7
C[C@H](CO)N1C[C@H](C)[C@H](CN(C)S(=O)(=O)c2cn(C)cn2)Oc2ccc(NC(=O)Nc3cccc4ccccc34)cc2C1=O	3.4
